Assay outcomes (PubChem BioAssay)
eIF4H inh: human eIF4H binding inhibitors, primary screen, translation initiation inhibitor project, biochemical, uHTS, fluorescence polarization; inhibition, % at 35 µM; hit rate 0.94% among 290,000; eIF4H fluorescence polarization binding assay; AID 2012, 2009; Eukaryotic translation initiation factor 4H (Homo sapiens), Q15056;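 active = 50% or more with normal probe brightness, or confirmed in later tests; inconclusive = above 50% with abnormal brightness, or retests that disagree; inactive = below 50% or failed in later tests; about a fifth of its hits are not listed in these tables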;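 also: calls also rest on retests at 20 µM and on dose response follow-up; 0% = protein and probe with vehicle and 100% = probe without protein; strong numbers were not always called active; many hits fall short of the cut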
Yeast UUG start: modulators of yeast start codon fidelity, primary screen, whole organism, S. cerevisiae, single point, plate reader; S. cerevisiae UUG-firefly luciferase reporter, luminescence/redox ratio; hit rate 0.13% among 350,000; activity score, % at 18.7 µM;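 active = replicate mean at a twofold rise or more, about +100% in these data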;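 also: firefly luciferase made from a UUG start codon reports start codon fidelity; reporter light over untreated wells divided by growth signal over untreated wells; some hits fall short of that in this replicate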
CSC inhib: cancer stem cell viability inhibitors, primary screen, luminescence; cancer stem cell-like cells viability; inhibition, % at 7.5 µM; hit rate 1.1% among 300,000;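 active = mean at 75% or more and at least half the replicates too; inconclusive = mean and replicates disagree; tested in HMLE shEcad cells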;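 also: 0% = median of negative and 100% = median of positive control wells; the first replicate is given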
MT1-MMP act inh: blockers of MT1-MMP proenzyme processing, primary screen, HT1080 RFP-PRO-GFP cells, GFP/RFP fluorescence. Matrix metalloproteinase-14 (Homo sapiens), P50281. GFP/RFP ratio fluorescence, overnight; percent of plate control window, DMSO zero. GFP/RFP ratio change, % at 20 µM. hit rate 0.061% among 360,000. AID 651647, 2012;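 active = GFP/RFP ratio change of at least 30% with cell ATP level not reduced by more than half and red fluorescence within 50% of control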; also: strong numbers were not always called active
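system = RFP-PRO-GFP reporter HT1080 cells | dosing = 20 µM single dose, 1% DMSO | timing = overnight cell settling, then overnight compound exposure, 37 °C, 5% CO2 | read-out basis = GFP/RFP fluorescence ratio | controls = DMSO and RFP-L50D-GFP cell wells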
HIV Env fusion: inhibitors of HIV-1 Env-driven cell-cell fusion, primary screen, HeLa-JRFL effector, CEM21 target cells, luciferase; inhibition, % at 12.3 µM; AID 651610, 2012; hit rate 1.1% among 360,000;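 active = mean replicate inhibition score of at least 50 and every replicate individually at or above 50; inconclusive = only one of the two criteria met; inactive = mean below 50 and not all replicates reaching 50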;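 also: 0% = plate neutral controls and 100% = maraviroc near 300 nM; one replicate is shown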
PABP FP inh: PABP poly(A) RNA binding inhibitors, primary screen, biochemical, fluorescence polarization, uHTS; Polyadenylate-binding protein 1 (Homo sapiens), P11940; hit rate 1% among 290,000; AID 2014, 2009; inhibition, % at 35 µM;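 active = 50% or more with normal probe brightness, or confirmed in later tests; inconclusive = above 50% with abnormal brightness, or retests that disagree; inactive = below 50% or failed in later tests; about a fifth of its hits are not listed in these tables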;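 also: calls also rest on retests at 20 µM and on dose response follow-up; controls were probe without protein and protein plus probe with vehicle; some compounds called inactive have numbers as strong as hits; many hits fall short of the cut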
Target sequence (P11940 whole entry, looked up): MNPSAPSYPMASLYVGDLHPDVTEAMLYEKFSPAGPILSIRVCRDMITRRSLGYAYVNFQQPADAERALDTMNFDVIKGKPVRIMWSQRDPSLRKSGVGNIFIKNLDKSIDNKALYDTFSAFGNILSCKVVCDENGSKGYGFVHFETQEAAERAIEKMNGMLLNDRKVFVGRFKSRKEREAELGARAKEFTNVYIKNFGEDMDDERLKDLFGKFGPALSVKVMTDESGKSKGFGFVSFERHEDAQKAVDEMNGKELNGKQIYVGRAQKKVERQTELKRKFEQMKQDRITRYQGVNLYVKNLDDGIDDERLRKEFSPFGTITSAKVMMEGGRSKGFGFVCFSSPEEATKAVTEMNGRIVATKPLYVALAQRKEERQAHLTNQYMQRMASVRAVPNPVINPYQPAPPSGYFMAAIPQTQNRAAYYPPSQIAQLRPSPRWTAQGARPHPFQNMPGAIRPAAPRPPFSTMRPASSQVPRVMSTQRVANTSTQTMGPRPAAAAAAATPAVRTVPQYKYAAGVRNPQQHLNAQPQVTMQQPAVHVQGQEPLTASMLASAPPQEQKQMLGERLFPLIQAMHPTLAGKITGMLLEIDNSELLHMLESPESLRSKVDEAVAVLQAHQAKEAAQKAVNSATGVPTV
Rce1 inh: yeast Rce1p protease inhibitors, primary screen, biochemical, fluorescence, cell-free homogeneous. yeast membranes, quenched prenylated peptide cleavage fluorescence. calls only. hit rate 0.27% among 290,000. AID 2563, 2010;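 active = fall in fluorescence gain of 50% or more versus controls, with final raw signal at or below 3038400; inconclusive = same 50% fall but final raw signal above 3038400; inactive = fall in fluorescence gain under 50%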;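 also: plate controls were neutral control wells for no effect and wells lacking membranes for full effect; tested at 10 µM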
MT1-MMP act inh RFP: also measured in MT1-MMP act inh; calls as there; RFP signal change, %; measured here: RFP expression control read;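 0 = vehicle wells; hits needed this value within 50% of zero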
* marks the source's active call; other numbers are inactive results; i = inactive; ? = inconclusive; . = not tested or not shown.

entry	Compound	CSC inhib	MT1-MMP act inh RFP	Rce1 inh	PABP FP inh	HIV Env fusion	MT1-MMP act inh	Yeast UUG start	eIF4H inh
1	O=C(OCc1cn([C@H]2C[C@H](c3ccc(Cl)cc3)N(CC3CCCCC3)C[C@@H]2O)nn1)c1ccccc1	.	0.0	.	.	-73.5	-1.1	-3.1	.
2	CCNc1cc(O)ccc1C	1.3	33.2	.	.	.	3.7	-16.5	.
3	CC(C)C(O)C1CCN(Cc2nc(-c3cccs3)no2)CC1 (stereo not given)	4.0	-7.7	i	-3.4	14.5	6.1	0.3	-6.7
4	CCCc1nc2oc3c(Cl)ncnc3c2c2c1CCCC2	1.9	-5.7	i	7.6	-5.9	-0.5	-16.3	-9.5
5	COc1ccc(CNC(=O)C2CC(C)=C(C)CC2C(=O)O)cc1 (stereo not given)	-4.9	4.8	i	4.4	?	3.0	-27.2	-8.8
6	CC1CCN(C(=O)c2cc(F)c(F)cc2Cl)CC1	9.0	-1.6	i	11.1	3.2	3.3	10.3	34.0
7	O=C(Nc1ccccc1)c1ccc(N2CCN(c3ccccc3)CC2)c(S(=O)(=O)N2CCOCC2)c1	4.0	-9.0	.	-4.5	-116.8	5.4	-9.9	-0.2
8	COc1cccc(SCc2noc(C(=O)NC(C)C)c2C(=O)O)c1	4.3	4.9	i	-4.8	-6.4	3.2	-7.0	-8.7
9	Cc1ccc(NC(=S)NCCN2CCOCC2)cc1F	-6.3	1.3	i	1.4	-12.1	1.5	-16.8	3.0
10	OC(COC1CCCCC1)CN1CCCCC1 (stereo not given)	2.2	2.2	i	10.0	-1.8	1.2	-6.8	-2.1
11	CCOC(=O)N1CCN(C(=O)CCCn2c(=O)[nH]c3ccccc3c2=O)CC1	-3.2	-3.4	i	-5.0	-130.8	-0.2	-17.3	-10.3
12	CCOC(=O)C1(CCOC)CCN(Cc2ccc(COC)o2)CC1	-6.7	-0.1	i	-4.8	17.2	0.5	-0.4	-7.5
13	CC1CN(C(=O)CCC(=O)NCc2ccccc2)c2ccccc2O1 (stereo not given)	6.6	3.6	i	-12.6	-8.2	3.8	-2.7	-13.9
14	Cc1ccc(SCCNCc2ccco2)cc1	5.9	4.9	i	3.7	14.4	2.2	-20.5	42.4
15	Cc1cc2cc(CN(Cc3ccco3)C(=S)NCC3CCCO3)c(=O)[nH]c2cc1C (stereo not given)	-5.7	1.0	i	-13.3	-24.8	0.0	-3.5	0.1
16	CCn1c(CC(=O)Nc2ccccc2)nnc1SCC(=O)Nc1ccccc1C(=O)OC	.	4.3	i	-10.5	14.0	4.4	-39.9	6.1
17	CCOC(=O)c1c(C)[nH]c(C(=O)COC(=O)c2ccc([N+](=O)[O-])o2)c1C	4.0	-2.1	.	.	13.6	4.1	-19.6	.
18	COc1cccc(CC(=O)OCC(=O)NC2(C#N)CCCCC2)c1	-11.1	2.2	i	.	-2.1	1.4	6.7	.
19	CCN(C(=S)NCc1ccccc1)c1cccc2ccccc12	5.6	-2.9	i	-3.6	2.2	-3.0	-20.2	8.5
20	Cc1cc(N2CCCCCC2)nc(-c2ccccc2O)n1	23.1	-5.2	i	7.0	.	7.8	-2.3	2.6
21	CCn1c(=O)cc(OCC(=O)Nc2ccc3c(c2)OCCO3)c2ccccc21	-9.6	4.0	i	-8.4	-2.3	2.7	-15.2	-5.6
22	C[C@@H]1COC(=O)[C@H](NC(=O)OCC2c3ccccc3-c3ccccc32)C/C=C\C[C@@H](CC(=O)N[C@H](CO)Cc2ccccc2)C(=O)N1	.	0.9	.	.	-13.5	-6.0	-13.5	.
23	CCOC(=O)C1(C)NC(c2ccc(O)cc2)C2C(=O)N(c3ccccc3)C(=O)C21 (stereo not given)	-7.5	6.4	i	3.6	-8.2	0.8	-8.3	3.8
24	CC1CCN(c2ccc3c(c2)S(=O)(=O)c2cccc(C(=O)NC4CCCCC4)c2C3=O)CC1	2.8	-2.6	.	.	-3.5	-104.9	-22.2	.
25	O=C(c1ccc2c(c1)OCCO2)N1CCN(c2ccc([N+](=O)[O-])cc2)CC1	.	.	i	40.3	.	.	.	0.2
26	COc1ccc(C(=O)Oc2ccc(C(=S)N3CCOCC3)cc2)cc1	9.9	1.4	i	3.9	16.6	-3.8	.	-7.3
27	CCC(=O)N1CCC1(C)C(=O)Nc1cccc2cccnc12 (stereo not given)	.	1.5	.	.	-27.9	0.2	-1.1	.
28	Cc1ccc(NS(=O)(=O)c2cc(C(=O)NCc3ccccn3)ccc2Cl)cc1C	-6.6	-16.1	i	-5.1	.	-20.9	-21.4	-15.0
29	Cc1ccc(C(=O)NCC#N)cc1	-11.8	4.7	i	-7.6	-10.9	1.9	.	-1.6
30	CCCNC(=O)c1ccc(N2CC3CC(C2)c2cccc(=O)n2C3)c(NC(=O)Nc2ccc(CC)cc2)c1 (stereo not given)	-8.0	0.5	i	.	1.5	0.3	11.5	.

2 compounds drawn at random from the list so far:
entry	Compound	CSC inhib	MT1-MMP act inh RFP	Rce1 inh	PABP FP inh	HIV Env fusion	MT1-MMP act inh	Yeast UUG start	eIF4H inh
23	CCOC(=O)C1(C)NC(c2ccc(O)cc2)C2C(=O)N(c3ccccc3)C(=O)C21 (stereo not given)	-7.5	6.4	i	3.6	-8.2	0.8	-8.3	3.8
16	CCn1c(CC(=O)Nc2ccccc2)nnc1SCC(=O)Nc1ccccc1C(=O)OC	.	4.3	i	-10.5	14.0	4.4	-39.9	6.1

The listing picks up, repeating the two entries before the break.
entry	Compound	CSC inhib	MT1-MMP act inh RFP	Rce1 inh	PABP FP inh	HIV Env fusion	MT1-MMP act inh	Yeast UUG start	eIF4H inh
29	Cc1ccc(C(=O)NCC#N)cc1	-11.8	4.7	i	-7.6	-10.9	1.9	.	-1.6
30	CCCNC(=O)c1ccc(N2CC3CC(C2)c2cccc(=O)n2C3)c(NC(=O)Nc2ccc(CC)cc2)c1 (stereo not given)	-8.0	0.5	i	.	1.5	0.3	11.5	.
31	N#Cc1c(NC(=S)NC(=O)c2ccccc2)sc2c1CCCC2	11.2	3.3	i	-3.4	-177.7	3.3	-0.3	-5.3
32	CCC(C)c1ccccc1NC(=O)C1CCCO1 (stereo not given)	-15.0	-0.1	i	-4.5	-56.3	-4.4	-7.0	-1.8
33	CCc1ccccc1NC(=O)Nc1cc(F)ccc1F	6.4	-4.5	i	-15.0	16.0	2.3	.	5.4
34	Cc1cc(N(C)C)c(C#N)c(N2CCCCC2)n1	-4.4	9.4	i	-7.4	-73.5	0.9	-10.1	2.0
35	CC(C)CN(C(=O)COC(=O)c1nc(Cl)ccc1Cl)C1CCS(=O)(=O)C1 (stereo not given)	-5.3	3.1	i	?	4.7	1.8	.	9.4
36	COc1ccc(C(=O)Nc2ccncc2)c(OC)c1	.	-2.2	i	2.0	-24.3	-1.7	.	-13.4
37	Nc1ccc(C23CC4CC(CC(O)(C4)C2)C3)cc1	4.6	4.5	i	-7.2	.	11.7	-13.1	8.4
38	COc1cc(/C=C2\SC(=S)N(NC(=O)c3ccc(O)c(OC)c3)C2=O)ccc1O	.	43.6	i	-24.4	-8.8	3.7	-9.5	-6.9
39	CSc1nnc2c(n1)OC(c1ccsc1)N(C(C)=O)c1ccccc1-2 (stereo not given)	-4.0	-2.4	i	3.1	.	2.6	-12.2	-4.1
40	CC(C)OCCCNC(=O)C1CCN(S(=O)(=O)N2CCCC2)CC1	-8.9	8.1	i	8.5	-2.9	2.6	.	-5.1
41	CC(=O)Nc1ccc(Nc2cc(N3CCOCC3)c3nonc3c2[N+](=O)[O-])cc1	9.4	1.4	i	11.1	5.3	4.4	.	3.2
42	COc1ccc(CCC(=O)Nc2nc(-c3ccncc3)cs2)cc1	9.5	.	i	-12.7	.	.	.	-6.0
43	Cc1cccc(C(=O)OCC(=O)N2CCCCCC2)c1O	3.0	1.4	.	.	.	3.7	-6.5	.
44	CSc1ccc(CN2CCC(CO)(CCOc3ccccc3)CC2)cc1	20.9	-1.8	i	-2.8	0.2	6.3	-10.8	-5.3
45	CCN(Cc1ccccc1)C(=O)c1ccc2c(=O)n3c(nc2c1)CCC3	-1.0	1.8	i	.	-1.2	3.2	-9.5	.
46	COc1ccccc1-c1noc(-c2ccccc2C(=O)Nc2cccnc2)n1	-8.4	3.9	i	-7.1	-20.8	-1.7	-7.9	-8.5
47	Cc1ccccc1NC(=O)c1onc2c1CCCC2	10.8	0.0	i	9.2	.	-4.9	.	6.2
48	Brc1ccc(-c2csc(-c3ccncc3)n2)cc1	12.5	-2.7	i	2.0	-45.0	2.7	.	-4.0
49	COc1ccccc1NS(=O)(=O)c1cccc(C(=O)N2CCCCCCC2)c1	-4.9	-1.7	.	.	.	19.8	28.5	.
50	Cc1ccccc1C(=O)Nc1ccccc1N1CCN(C(=O)c2ccccc2)CC1	-9.3	-1.5	i	8.6	7.7	-1.2	2.0	3.4
51	COc1ccc(Cc2nc3ccc(C(=O)N4CCCCC4CCO)cc3o2)cc1 (stereo not given)	2.9	2.3	i	-12.9	-3.6	4.9	-7.3	-14.5
52	CC(=O)Nc1c(-c2ccc(F)cc2)nc2ccccn12	1.6	1.7	i	-1.5	-6.4	1.2	16.4	-6.3
53	CCOc1cc(/C=N/NC(=O)c2ccc3c(c2)OCCO3)cc(Br)c1O	-3.9	2.2	i	14.4	3.1	-0.4	-7.2	-6.5
54	O=C(O)c1ccc(OCC(O)Cn2cnc3ccccc32)cc1 (stereo not given)	9.9	0.5	i	5.3	-18.5	0.3	-28.9	1.3
55	COc1cccc(/C=C/C(=O)OCC(=O)Nc2ccccc2Sc2ccccc2)c1	-7.8	0.4	i	-13.8	-6.9	0.6	.	-7.1
56	CCOc1ccccc1NC(=O)CSc1nc2nc(-c3cccs3)cc(C(F)(F)F)c2c(=O)[nH]1	53.8	-11.1	i	18.7	-0.9	5.0	.	1.9
57	O=C(CSc1ccc(-c2cccs2)nn1)NCCc1ccccc1	-12.7	2.1	i	7.7	-6.0	3.3	-8.8	-11.5
58	CS(=O)(=O)N1CCCC(C(=O)NCc2ccc(F)cc2)C1 (stereo not given)	-6.7	2.8	i	5.3	-39.2	7.6	-15.6	-4.1
59	O=C(CCn1nc(-c2ccc(Cl)cc2)c2ccccc2c1=O)Nc1cccnc1	1.8	-7.0	i	4.2	26.9	-7.2	.	2.1
60	Cc1c(NC(=S)N/C(=N/S(=O)(=O)c2ccccc2)c2ccccc2)c(=O)n(-c2ccccc2)n1C	-22.4	3.4	i	-3.7	14.1	4.4	-13.8	3.7
61	COc1ccc(OC)c2sc(N(CCN(C)C)C(=O)c3ccc4ccccc4c3)nc12	1.7	3.2	i	3.2	-5.4	-0.7	9.5	-6.1
62	O=C(NNS(=O)(=O)c1ccccc1)c1cccc([N+](=O)[O-])c1	-21.1	-2.2	i	4.1	3.0	2.0	-17.8	-5.6
63	COc1cc(OC)cc(C(=O)N[C@H](C(=O)OCC(=O)c2c[nH]c3ccccc23)C(C)C)c1	0.8	-3.9	.	.	.	-1.8	-0.6	.
64	Cc1ccc(NC2CCCN(C(=O)c3cn(C)c4ccccc34)C2)cc1C (stereo not given)	6.7	1.2	i	-1.0	26.6	-5.2	-2.4	0.5
65	CCOC(=O)C(=NC(C)C)NNc1cc(Cl)ccc1Cl	8.2	0.5	i	8.4	-7.8	-1.4	.	-8.2

The list is partial (hit frequency here may not be typical).
